rRNA inh HTS: inhibits bacterial ribosomal RNA function over humanized ribosomes. E. coli WT GFP vs humanized-ribosome RFP mutants, fluorescence, 24 h; hits give low values; DMSO median 0, no signal -100. GFP signal change (wild-type ribosome), % (concentration not given with the values). 1.6% of 350,000 active;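 active = significant combined selectivity score with lowered wild-type GFP, culture density cut under 30%, mutant RFP and density less affected; inactive = any of these conditions unmet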; also: one replicate is shown; some compounds called inactive have numbers as strong as hits
ALR H2O2 inh: inhibitors of human sulfhydryl oxidase ALR | purified ALR, DTT oxidation, H2O2 HRP-luminol luminescence | inhibition, % (no concentration beside the values) | 3.8% of 290,000 active;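 active = mean and each replicate at 75% or more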;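 also: stock transfer was 7.5 nL into about 7.5 µL; 0% = neutral wells and 100% = wells with inactivated enzyme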
Target sequence (P55789 whole entry, looked up): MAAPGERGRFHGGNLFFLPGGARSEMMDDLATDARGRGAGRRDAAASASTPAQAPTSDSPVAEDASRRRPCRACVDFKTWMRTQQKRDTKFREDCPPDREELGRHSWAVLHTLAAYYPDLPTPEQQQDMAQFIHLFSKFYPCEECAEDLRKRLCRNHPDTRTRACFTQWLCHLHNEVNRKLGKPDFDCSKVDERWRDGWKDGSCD
Vif TR-FRET: HIV-1 Vif–A3G interaction blockers – biochemical, TR-FRET, GST-Vif 1-94, biotin-A3G peptide, dose response retest, primary screen (AID 1117319); TR-FRET GST-Vif / biotin-A3G peptide binding; higher % means a stronger effect; test concentration not given here; strong numbers were not always called active; inhibition, %; hits with a dose series show IC50 in µM; 0.57% of 260,000 active;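 active = above the screen mean plus three standard deviations and confirmed in dose response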;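 also: Vif residues 1-94 fused to GST binding biotinylated APOBEC3G peptide 110-148; 0% = full assay without inhibitor and 100% = GST in place of GST-Vif; retest series ran down from 100 µM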
MLL AF4-AF9 inh: inhibitors of human MLL-AF4/AF9 interaction; AlphaScreen, biotin-AF4 peptide binding to FLAG-AF9; inhibition, % at 10 µM; 0.47% of 350,000 active; P42568;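 active = every replicate reaching a set inhibition limit, whatever the replicate mean, cut at about 25% in these data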;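 also: 0% = plate neutral control median and 100% = total signal loss; the record names both 10 and 1 µM as test concentration; the first replicate is given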
Target sequence (P42568 whole entry, looked up): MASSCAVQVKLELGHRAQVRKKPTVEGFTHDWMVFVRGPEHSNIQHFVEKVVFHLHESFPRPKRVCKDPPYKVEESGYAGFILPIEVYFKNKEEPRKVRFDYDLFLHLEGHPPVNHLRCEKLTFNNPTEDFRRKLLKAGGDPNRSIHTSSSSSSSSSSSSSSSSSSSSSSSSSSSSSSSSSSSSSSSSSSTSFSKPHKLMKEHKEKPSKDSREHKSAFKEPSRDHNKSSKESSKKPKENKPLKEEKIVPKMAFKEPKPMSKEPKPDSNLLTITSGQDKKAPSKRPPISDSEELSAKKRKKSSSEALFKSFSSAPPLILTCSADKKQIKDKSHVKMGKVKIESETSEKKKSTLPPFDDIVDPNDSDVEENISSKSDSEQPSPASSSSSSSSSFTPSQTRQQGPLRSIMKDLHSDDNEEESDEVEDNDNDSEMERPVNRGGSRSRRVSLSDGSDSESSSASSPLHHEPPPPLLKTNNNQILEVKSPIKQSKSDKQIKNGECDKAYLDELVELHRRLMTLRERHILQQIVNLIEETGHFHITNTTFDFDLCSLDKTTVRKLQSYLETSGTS
FGF22 binding: binders of recombinant human FGF22 by thermal shift; 1.5% of 340,000 active; SYPRO orange fluorescence; percent of sucrose octasulfate shift, DMSO zero; calls only at 9.99 µM; AID 651658; Q9HCT0;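 active = melting point raised past a set limit in the mean and every replicate; three in four hits are not shown here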
Target sequence (Q9HCT0 whole entry, looked up): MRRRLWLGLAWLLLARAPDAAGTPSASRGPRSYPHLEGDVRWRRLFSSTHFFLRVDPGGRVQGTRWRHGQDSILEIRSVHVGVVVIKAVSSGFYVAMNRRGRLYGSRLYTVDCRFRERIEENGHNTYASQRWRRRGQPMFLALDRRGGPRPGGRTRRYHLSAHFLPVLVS
HNF4A DNA FP: change in binding of human HNF4 alpha to DNA; 0.3% of 360,000 active; HNF4a-FITC DNA binding, fluorescence polarization, 1 h; P41235; AID 1224865; activity change, % at 10 µM; in the data active = activity change above about 30%, passing the limit was not always enough;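 also: controls were the assay level and a saturating level of protein; the project sought stronger binding though the title names inhibitors; some compounds called inactive have numbers as strong as hits; positive values seem to mean higher polarization but the record does not say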
Ecoli growth: blocks Escherichia coli growth | OD600, 23 h; hits give low values | OD600 absorbance (no concentration beside the values) | 0.21% of 330,000 active | AID 1053175;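 active = OD600 absorbance below the run mean of sample wells minus 3.6 SD, in any replicate, cut at about 0.56 in these data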;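 also: stock transfer was 300 nL into about 60 µL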
rRNA inh HTS OD600: second read-out of rRNA inh HTS, no call of its own (marks repeat the call); OD600 change, %; measured here: OD600 growth;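 optical density of the mix in the first replicate; 0 = DMSO median and -100 = no signal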
rRNA inh HTS RFP: further read-out of rRNA inh HTS, marked with its call; RFP signal change, %; measured here: RFP humanized mutant strains;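 first replicate; 0 = DMSO median and -100 = no signal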
Starred values were filed as active, the others as inactive; i = inactive; . = no result given. Only part of the results is shown; rates above refer to the full screens.

item | Molecule | rRNA inh HTS | rRNA inh HTS OD600 | rRNA inh HTS RFP | ALR H2O2 inh | Vif TR-FRET | MLL AF4-AF9 inh | FGF22 binding | HNF4A DNA FP | Ecoli growth
1 | CC(C)N(CCc1ccncc1)C(=S)Nc1cccc(Cl)c1 | -17* | -10* | 5.3* | 5 | . | -8.0 | i | -2.2 | 0.67
2 | Cc1nnc(SCC(=O)NC(=O)NCc2ccco2)s1 | 8 | 4 | 5.1 | 1 | 1% | -0.4 | i | -0.7 | 0.66
3 | O=C(CCNC(=O)c1ccccc1Cl)Nc1nccs1 | . | . | . | -1 | -1% | . | . | 1.8 | 0.69
4 | COCCN1C(=O)c2ccc(C(=O)Nc3cccnc3)cc2C1=O | 7 | 7 | 0.3 | -11 | . | 1.4 | i | -4.5 | 0.71
5 | O=C(Nc1ccncc1)Nc1ccccc1Cl | 1 | -2 | -0.7 | -4 | 0% | -3.6 | i | 3.8 | 0.68
6 | Cc1nc2ccccc2c2oc(C(=O)NCCCN3CC(C)CC(C)C3)cc12 (configuration not stated) | -3 | -6 | -0.7 | -3 | 4% | 0.4 | i | 3.1 | 0.67
7 | COc1ccccc1N1CCN(C(=O)C(=O)c2cccc([N+](=O)[O-])c2)CC1 | -5 | 8 | 3.8 | . | . | 5.7 | i | 4.9 | .
8 | COc1ccc(-c2csc(NC(=O)CSC(C)C(=O)Nc3cc(C)on3)n2)cc1OC (configuration not stated) | -17 | -23 | -2.4 | 26 | 12% | -2.0 | i | -0.5 | 0.68
9 | COc1ccc(NC(=O)Cn2nnc(-c3ccccc3NC(=O)c3cccs3)n2)cc1 | . | . | . | 0 | 6% | . | . | 2.0 | 0.68
10 | CCCC(=O)Nc1ccc2c(c1)OC[C@@H](C)N(C(=O)c1ccncc1)C[C@@H](C)[C@H](OC)CN(C)C2=O | 1 | 2 | -0.4 | . | . | -1.9 | i | . | .
11 | CCCN(C)C[C@@H]1Oc2cc(C#Cc3ccccc3OC)ccc2S(=O)(=O)N([C@@H](C)CO)C[C@@H]1C | 4 | 5 | 2.6 | . | . | 3.8 | i | . | .
12 | O=C(Cn1c(NCCCO)nc2ccccc21)c1cccc(Br)c1 | . | . | . | 1 | 10% | . | . | 1.9 | 0.68
13 | Cc1nc(SCC(=O)c2ccccc2)[nH]c(=O)c1Oc1ccc(Cl)cc1 | -3 | 5 | 4.1 | 2 | . | -2.5 | i | 0.8 | 0.71
14 | COc1ccc(N2CC(O)(c3ccc(C)cc3)[N+]3=C2CCCC3)cc1 (configuration not stated) | 11 | 4 | -2.1 | -28 | . | -2.2 | i | -2.5 | 0.68
15 | COc1ccc2c(c1)[nH]c1c(=O)n(Cc3ccncc3)cnc12 | 5 | -1 | 0.9 | -6 | 2% | -6.1 | i | 1.9 | 0.7
16 | CCOC(=O)c1c(C)oc2c1c(CN1CCN(C(=O)OCC)CC1)c(O)c1ccccc12 | -7 | -22 | -9.2 | . | 9% | 8.9 | i | -3.7 | 0.65
17 | COc1cccc(S(=O)(=O)N[C@H]2CC[C@H](CC(=O)NC3Cc4ccccc4C3)O[C@H]2CO)c1 | 4 | 15 | -1.5 | . | . | -1.3 | i | . | .
18 | CCCCCOc1ccc(C(=O)CCC(=O)NNC(=O)c2ccncc2)cc1 | -8 | -3 | -0.9 | . | 3% | 4.6 | i | 0.6 | 0.68
19 | Cn1c(CCc2ccccc2)nnc1SCC(=O)N1CCOCC1 | . | . | . | 1 | 6% | . | . | -1.9 | 0.67
20 | C[C@@H]1CN([C@@H](C)CO)S(=O)(=O)c2ccc(-c3ccc(C#N)cc3)cc2O[C@H]1CN(C)Cc1ccccn1 | -21 | -40 | -4.7 | . | . | -5.7 | i | . | .
21 | O=C(C[C@@H]1C/C=C\CCC(=O)OC[C@@H]2CCCN2C1=O)NCCO | 1 | 11 | 3.6 | 3 | . | -2.2 | i | -1.1 | .
22 | CCOCCCNC(=O)C(NC(=O)c1ccccn1)c1ccc(C)cc1 (configuration not stated) | . | . | . | 1 | -2% | . | . | 2.0 | 0.73
23 | O=C(COc1ccc(S(=O)(=O)N2CCOCC2)cc1)N1CCN(c2ccccc2)CC1 | 4 | 8 | 0.1 | 28 | . | 0.4 | i | 3.3 | 0.66
24 | Cn1cnc(S(=O)(=O)N2CC[C@@H]3[C@H]2c2cc(C#Cc4ccc(F)cc4)ccc2N[C@@H]3CO)c1 | -9 | -38 | 8.8 | . | . | 9.5 | i | . | .
25 | C[C@H](CO)N1C[C@H](C)[C@H](CN(C)Cc2ccccn2)Oc2ncc(C#Cc3ccccc3)cc2C1=O | 1 | 5 | 0.8 | . | . | 1.9 | i | . | .

Compound profiles, from the list above:
Entry for COc1ccc(-c2csc(NC(=O)CSC(C)C(=O)Nc3cc(C)on3)n2)cc1OC (configuration not stated) : rRNA inh HTS: -17; rRNA inh HTS OD600: -23; rRNA inh HTS RFP: -2.4; ALR H2O2 inh: 26; Vif TR-FRET: 12%; MLL AF4-AF9 inh: -2.0; FGF22 binding: i; HNF4A DNA FP: -0.5; Ecoli growth: 0.68
Entry for O=C(Nc1ccncc1)Nc1ccccc1Cl : rRNA inh HTS: 1; rRNA inh HTS OD600: -2; rRNA inh HTS RFP: -0.7; ALR H2O2 inh: -4; Vif TR-FRET: 0%; MLL AF4-AF9 inh: -3.6; FGF22 binding: i; HNF4A DNA FP: 3.8; Ecoli growth: 0.68
Entry for CCCN(C)C[C@@H]1Oc2cc(C#Cc3ccccc3OC)ccc2S(=O)(=O)N([C@@H](C)CO)C[C@@H]1C : rRNA inh HTS: 4; rRNA inh HTS OD600: 5; rRNA inh HTS RFP: 2.6; ALR H2O2 inh: .; Vif TR-FRET: .; MLL AF4-AF9 inh: 3.8; FGF22 binding: i; HNF4A DNA FP: .; Ecoli growth: .

Next section
item | Molecule | rRNA inh HTS | rRNA inh HTS OD600 | rRNA inh HTS RFP | ALR H2O2 inh | Vif TR-FRET | MLL AF4-AF9 inh | FGF22 binding | HNF4A DNA FP | Ecoli growth
26 | COc1ccc(N2CC(O)(c3ccc(OC(F)F)cc3)[N+]3=C2CCCC3)cc1 (configuration not stated) | -2 | -1 | -1.5 | -12 | 3% | -0.5 | i | 0.1 | 0.65
27 | CCc1nn(CC(=O)NC(C)CCc2ccccc2)c(=O)c2cc3occc3n12 (configuration not stated) | 9 | 9 | -1.2 | 2 | . | -0.9 | i | 1.2 | 0.69
28 | CC(=O)c1c(N2CCN(c3ccc(F)cc3)CC2)nc(=S)n(-c2ccccc2)c1C | 2 | 4 | 5.4 | 19 | 9% | 26* | i | 4.8 | 0.64
29 | CN1C(=O)Nc2cccc3cccc1c23 | -8 | -13 | 0.3 | 44 | 1% | 2.5 | i | 0.8 | 0.64
30 | C[C@H](CO)N1C[C@H](C)[C@H](CN(C)S(=O)(=O)c2cn(C)cn2)Oc2c(NC(=O)Nc3ccccc3)cccc2C1=O | -1 | 0 | 1.5 | . | . | -0.8 | i | . | .
31 | CN1[C@@H]2c3ccc(-c4ccc(F)cc4)c(=O)n3C[C@@H]2[C@@H](CO)[C@@H]1C(=O)Nc1ccccc1 | -4 | -9 | 2.6 | . | . | 2.5 | i | . | .
32 | CC(C)(C)NC(=O)c1ccc2c(c1)C(=O)N(C1CCCCC1)C2=O | -35 | -34 | -4.1 | -16 | -9% | . | . | -2.4 | 0.67
33 | CC(=O)Nc1ccc(NC(=O)C(C)OC(=O)C2CCC2)cc1 (configuration not stated) | 2 | 4 | -1.8 | -2 | 5% | 0.9 | i | 2.2 | 0.63
34 | O=S(=O)(c1ccccc1F)N1CCCCN2[C@H](CO)[C@@H](c3ccc(-c4cccnc4)cc3)[C@H]2C1 | -4 | -4 | 1.5 | . | . | -0.5 | i | . | .
35 | COc1cc(/C=N/N2CCN(Cc3ccc(Cl)cc3)CC2)ccc1OC(C)=O | -14 | -10 | -0.8 | 44 | -5% | 16 | i | 3.9 | .
36 | O=C(NCc1ccccc1CN1CCOCC1)c1ccc(-n2cccn2)cc1 | 6 | 5 | 5.2 | 2 | . | -4.0 | i | 3.9 | 0.61
37 | CCOC(=O)C1CCN(C(=O)C2CCN(c3nc4ccc(OC)cc4s3)CC2)CC1 | . | . | . | 53 | -3% | . | . | -0.2 | 0.69
38 | CC(=O)N1c2ccc(S(=O)(=O)NCCC(=O)Nc3ccc(F)cc3C)cc2CC1C (configuration not stated) | 2 | 8 | -1.8 | -6 | 2% | 0.8 | i | -0.4 | 0.7
39 | CN(c1cccc(NC(=O)c2ccc(N(C)S(=O)(=O)c3ccccc3)cc2)c1)S(C)(=O)=O | -17* | 3.8* | 2.2* | -20 | -11% | 3.0 | i | -1.1 | 0.69
40 | NC(=S)c1ccc(C(N)=S)o1 | . | . | . | -7 | 24% | . | . | -1.8 | 0.65
41 | O=C(C[C@@H]1CC[C@H](NC(=O)CCN2CCCCC2)[C@@H](CO)O1)Nc1ccc(-c2ccccc2)cc1 | -1 | 5 | 0.0 | . | . | 4.4 | i | . | .
42 | COC(=O)c1ccccc1-c1ccc(C(c2c(C)[nH][nH]c2=O)c2c(C)[nH][nH]c2=O)o1 | 15 | 15 | -0.5 | -12 | . | -2.5 | . | -0.4 | 0.7
43 | Cc1ccc(S(=O)(=O)Nc2ccc(N=Nc3ccc(O)cc3)cc2)cc1 | -63 | -80 | -26 | 90* | -4% | 6.6 | . | 3.8 | 0.67
44 | C[C@H](CO)N1C[C@H](C)[C@H](CN(C)Cc2ccc(C(=O)Nc3ccccc3N)cc2)Oc2ccc(NC(=O)Nc3cccc4ccccc34)cc2C1=O | -5 | -16 | -0.6 | . | . | -7.4 | i | . | .
45 | O=C(Nc1cccc(Cl)c1)C1CC1c1ccccc1 (configuration not stated) | -7 | 14 | 1.7 | 4 | . | . | i | -1.6 | 0.66
46 | N#CCCN(C(=O)COC(=O)c1ccc2c(=O)n3c(nc2c1)CCC3)c1ccccc1 | 0 | 10 | -2.7 | -4 | 0% | 0.2 | i | -2.0 | 0.69
47 | COCCN(C(=O)c1csnn1)C(C(=O)NC1CCCCC1)c1cccs1 (configuration not stated) | . | . | . | -3 | 1% | . | . | 2.6 | 0.73
48 | COc1ccc(CCNC(=O)c2cc3c(=O)n4cccc(C)c4nc3n(CCCN3CCOCC3)c2=N)cc1 | 8 | 13 | 2.4 | -61 | . | -11 | i | -1.6 | .
49 | COc1ccc2c(C)c(CC(=O)N3CCN(C(=O)C4COc5ccccc5O4)CC3)c(=O)oc2c1 (configuration not stated) | 1 | -15 | -1.0 | -3 | . | -2.7 | i | -1.2 | 0.7
50 | Cc1ccc(OCCC(=O)OCC(=O)c2c(N)n(C)c(=O)n(C)c2=O)cc1 | -9 | -5 | -5.1 | -1 | 5% | -0.9 | . | -3.2 | 0.66
51 | CC(=C\C(=O)O)/C(=C/c1ccccc1)C(=O)O | . | . | . | -7 | 4% | . | . | -4.6 | 0.7
52 | Cc1ccc2cc(CCNC(=O)c3ccc(S(=O)(=O)N4CCOCC4)cc3)c(=O)[nH]c2c1 | -16 | -15 | 2.4 | -1 | . | 0.5 | i | 4.1 | 0.68
53 | O=C(COC(=O)c1ccc(O)cc1O)NC12CC3CC(CC(C3)C1)C2 | -20 | -50 | 0.1 | . | 4% | 0.1 | i | 2.3 | 0.7
54 | C[C@H]1CCCCO[C@H](CN(C)CC2CCCCC2)[C@@H](C)CN([C@@H](C)CO)C(=O)c2cc(NS(=O)(=O)c3cn(C)cn3)ccc2O1 | 6 | 4 | 0.5 | . | . | -8.7 | i | . | .

Two of these compounds in a different format:
Results follow in this order: rRNA inh HTS, rRNA inh HTS OD600, rRNA inh HTS RFP, ALR H2O2 inh, Vif TR-FRET, MLL AF4-AF9 inh, FGF22 binding, HNF4A DNA FP, Ecoli growth
8. COc1ccc(-c2csc(NC(=O)CSC(C)C(=O)Nc3cc(C)on3)n2)cc1OC (configuration not stated)
→ -17, -23, -2.4, 26, 12%, -2.0, i, -0.5, 0.68
45. O=C(Nc1cccc(Cl)c1)C1CC1c1ccccc1 (configuration not stated)
→ -7, 14, 1.7, 4, ., ., i, -1.6, 0.66

Compound activity: PubChem BioAssay, several laboratories
